KCNQ2 block – KCNQ2 potassium channel inhibitors, primary screen, cell-based, CHO-K1, FluxOR thallium flux, B-score (AID 2156); Potassium voltage-gated channel subfamily KQT member 2 (Rattus norvegicus), O88943; 20 min; active compounds read low; only compounds with negative scores are shown here; some inactives read as strong as hits; B-score at 10 µM; hit rate 1.1% among 310,000;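 active = fluorescence ratio B-score at most minus 3 library SDs, with starting brightness B-score within 2 library SDs, cut at about -5.5 in these data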
Target sequence (O88943 whole entry, looked up): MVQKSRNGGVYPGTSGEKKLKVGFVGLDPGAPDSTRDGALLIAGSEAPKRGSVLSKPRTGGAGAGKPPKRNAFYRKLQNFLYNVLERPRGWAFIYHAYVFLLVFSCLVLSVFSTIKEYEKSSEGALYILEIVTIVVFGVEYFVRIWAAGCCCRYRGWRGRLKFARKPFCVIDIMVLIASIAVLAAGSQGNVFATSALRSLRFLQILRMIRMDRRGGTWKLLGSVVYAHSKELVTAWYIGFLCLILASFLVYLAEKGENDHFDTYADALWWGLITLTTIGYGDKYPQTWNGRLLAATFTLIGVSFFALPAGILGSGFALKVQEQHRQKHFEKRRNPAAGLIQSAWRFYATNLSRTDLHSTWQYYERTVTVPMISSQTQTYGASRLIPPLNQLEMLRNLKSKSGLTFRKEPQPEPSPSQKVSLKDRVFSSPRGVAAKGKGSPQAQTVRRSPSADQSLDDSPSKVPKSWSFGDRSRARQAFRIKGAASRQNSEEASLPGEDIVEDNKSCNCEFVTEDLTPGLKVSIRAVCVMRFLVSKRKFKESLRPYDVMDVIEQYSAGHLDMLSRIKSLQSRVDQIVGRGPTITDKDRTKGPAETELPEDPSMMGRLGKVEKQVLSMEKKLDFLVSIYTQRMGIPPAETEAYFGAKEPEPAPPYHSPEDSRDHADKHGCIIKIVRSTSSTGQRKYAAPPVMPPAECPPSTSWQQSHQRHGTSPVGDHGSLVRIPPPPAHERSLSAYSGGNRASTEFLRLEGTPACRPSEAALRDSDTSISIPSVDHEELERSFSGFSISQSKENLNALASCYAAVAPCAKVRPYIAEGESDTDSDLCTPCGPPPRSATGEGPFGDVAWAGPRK
KCNQ2 block baseline – recorded beside KCNQ2 block, whose call it bears; B-score; measured here: initial fluorescence intensity artifact check;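 brightness before thallium and not channel activity; 0 = typical well and far values either way flag optical interference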
The depositor's hits bear a star; i = inactive. Not all compounds are listed; the hit share may differ from the screen's.

SMILES	KCNQ2 block	KCNQ2 block baseline
O=C(OCC(=O)N1CCCCCC1)c1ccc(S(=O)(=O)N2CCOCC2)cc1	i	-0.78
Cc1c(C(=O)N2CCOCC2)c(S(=O)(=O)Nc2ccc(OC(F)(F)F)cc2)c(C)n1C	i	-0.81
CN(CC(=O)Nc1cccc(F)c1)C(=O)c1cn(-c2ccccc2)nc1-c1ccccc1	i	-0.23
Cc1cccc(NC(=O)CNc2cc(C)ccc2C)c1	i	-0.55
COc1cccc(-c2nn(-c3ccc(C)cc3)cc2C(=O)N2CCc3cc(OC)c(OC)cc3C2)c1	-6.2*	-0.24*
Cn1ccnc1C1CCCCN1Cc1nc(-c2ccc3c(c2)OCO3)no1 (stereo not drawn)	i	0.7
Cc1nc(NC(=O)CC(C)C)sc1-c1csc(Nc2ccc(Cl)cc2)n1	i	-0.61
O=C(CC(SCCO)c1ccc(F)cc1)c1ccco1 (stereo not drawn)	i	0.01
CCC1=C(OC(=O)N(CC)CC)N2C(=O)OC(=NCC(=O)OC)[C@]2(Cc2ccccc2)[C@H]2C1=CC[C@H]1C(=O)NC(=O)[C@H]12	i	0.04
COc1cccc(CN2CCc3ccc(NC(=O)CCc4ccc(C)cc4)cc3C2)c1O	i	-1.4
NC(=O)c1ccsc1NC(=O)c1ccc(S(=O)(=O)N2CCCCC2)cc1	i	-1
C=CCOc1ccc(CN(C)C(=O)CN2C(=O)c3ccccc3C2=O)cc1	i	-0.1
Cc1ccc(N(C(=O)Cn2nnc(-c3ccc(F)cc3)n2)C(CC(C)C)C(=O)NCC2CCCO2)cc1 (stereo not drawn)	i	-0.43
CCC(C(N)=NCCc1ccc(OC)c(OC)c1)c1ccccc1 (stereo not drawn)	i	0.4
COc1ccc(CCNC(=S)NCCc2c[nH]c3ccccc23)cc1	i	-0.13
Cc1cccc(NC(=S)N2CCCCC2)c1	i	-0.31
CC(=O)c1cc2c(C)c(C(=O)c3ccccc3)oc2cc1O	i	2.8
O=C(Cn1cccc1)N1CCN(C(c2ccccc2)c2ccccc2)CC1	i	-0.96
CS(=O)(=O)c1ccc(CNC(=O)C2(C(F)(F)F)C/C(=C/CCO)CCCO2)cc1 (stereo not drawn)	i	-0.31
O=C(Nc1nccs1)C1CCN(S(=O)(=O)c2ccc(F)cc2)CC1	i	0.63
COc1ccc(/C=C/C(=O)c2ccc([N+](=O)[O-])o2)cc1	i	-0.02
O=C(c1ccc(Br)o1)N1CCN(c2ccc3nnc(-c4ccc(F)cc4)n3n2)CC1	i	-1.5
CC1=C(C(=O)Nc2ccc(Br)cc2)C(c2ccco2)NC(=O)N1 (stereo not drawn)	i	0.95
CCC(=O)c1cn(/C(=C\C(=O)OC(C)(C)C)CCC(OC)OC)cc1CC	i	0.95
CC1CCCCN1C(=O)CN1C(=O)CN(C)C(=O)c2ccccc21 (stereo not drawn)	i	1.8
CCC(C)(C)n1nnnc1C(C(C)C)N(CCN1CCOCC1)Cc1cc2cccc(C)c2[nH]c1=O (stereo not drawn)	i	-1.3
COc1cc(C(=O)Nc2sc3c(c2C(=O)NCc2ccco2)CCCC3)cc(OC)c1OC	i	-0.04
CC(=O)NS(=O)(=O)c1ccc(NC(=O)/C=C/c2ccco2)cc1	i	1.4
COc1ccc(C/C(=N\OC(C)=O)c2ccc(OC)cc2)cc1	i	0.69
Cc1ccc2c(CN(C)Cc3ccc(Cl)cc3Cl)cc(=O)oc2c1	i	0.04
Cc1cc(C)c(OCCOCCN2CCNCC2)c(C)c1	i	-1.4
O=C(NC(Nc1nc2ccc([N+](=O)[O-])cc2s1)(C(F)(F)F)C(F)(F)F)c1ccccc1Cl	-10*	1*
CCN1CCN(CCNC(=O)c2ccc(CS(=O)(=O)c3ccccc3C)o2)CC1	i	0.07
Cc1cc(C)nc(N/N=C/c2ccccc2OCc2ccccc2)n1	i	-1.5
COc1ccc(C(=O)Nc2ccnn2C2CCN(C3CCC3)CC2)cc1	i	-0.54
Cn1cc(CNCc2cnc3ccccn23)c(-c2ccc(Oc3ccccc3)cc2)n1	i	5.8
O=C(O)CCc1ccc(-c2cccs2)n1CCc1ccccc1	i	-0.1
CC(=O)N1c2ccc(S(=O)(=O)NCC3CCC(C(=O)N4CC(C)CC(C)C4)CC3)cc2CC1C (stereo not drawn)	i	0.84
Cc1ccc(NC(=O)C(C)N=C2NS(=O)(=O)c3ccccc32)cc1 (stereo not drawn)	i	1.4
CSC1=N/C(=C\c2ccccc2F)C(=O)S1	i	2

Ordered by value in KCNQ2 block baseline (descending): 3 of the compounds above
| SMILES | KCNQ2 block baseline |
| --- | --- |
| CC(=O)N1c2ccc(S(=O)(=O)NCC3CCC(C(=O)N4CC(C)CC(C)C4)CC3)cc2CC1C (stereo not drawn) | 0.84 |
| COc1cc(C(=O)Nc2sc3c(c2C(=O)NCc2ccco2)CCCC3)cc(OC)c1OC | -0.04 |
| CCC(C)(C)n1nnnc1C(C(C)C)N(CCN1CCOCC1)Cc1cc2cccc(C)c2[nH]c1=O (stereo not drawn) | -1.3 |

Next part:
SMILES	KCNQ2 block	KCNQ2 block baseline
CCCCC(=O)N1CCN(c2nc3ccc(OCC)cc3s2)CC1	i	0.24
CC(=O)c1ccc(OCCCC(=O)NC2CCC(C)CC2)cc1 (stereo not drawn)	i	0.56
Cc1ccc(SCCNC(=O)C(CO)(CO)CO)cc1	i	1.6
CCOc1ccc2nc(N3CCCN(C(=O)Nc4ccccc4C)CC3)c(C#N)cc2c1	i	4.8
O=c1nc(Nc2ccc([N+](=O)[O-])cc2)[nH]c(=O)[nH]1	i	0.16
O=C(COC(=O)CSc1nnc(-c2ccc(Cl)cc2)o1)NCc1ccc2c(c1)OCO2	i	1.7
COc1ccc(NC(=O)c2cc(-c3ccc(C)o3)nc3ccccc23)c(OC)c1	i	-0.24
Cc1cccc(C)c1NCc1n[nH]c(=S)n1-c1ccccc1	i	0.1
COc1ccccc1C(=O)NNC(=S)NC(=O)c1cc(OC)c(OC)c(OC)c1	i	-0.66
O=C(O)CCCn1cc(NC(=O)COc2ccc(F)cc2F)cn1	i	2.3
CCOC(=O)c1sc(NC(=O)CN2C(=O)NC3(CC(C)CC(C)(C)C3)C2=O)c(C(=O)OCC)c1C (stereo not drawn)	i	-2.1
CNC(=O)/C(C#N)=c1\s/c(=C/C(=O)OC)c(=O)n1-c1ccccc1	i	2.3
CCN(CC)S(=O)(=O)c1ccc(N2CCOCC2)c(NC(=O)CC23CC4CC(CC(Br)(C4)C2)C3)c1	i	1
CCCc1[nH]n(-c2ccc(F)cc2)c(=O)c1C=Nc1ccc(C)cc1	i	-1.1
Cc1[nH]c2ccc(F)cc2c1CCN(Cc1ccncc1)C(=S)Nc1ccc(F)cc1	i	1.3
N/C(=N\OC(=O)c1cc(-c2ccccc2)nc2ccccc12)c1ccccn1	i	-0.42
CCOC(=O)N1CCN(c2nnc(-c3ccc(C)cc3)c3ccccc23)CC1	i	0.12
O=C(CN1C(=O)C2CC=CCC2C1=O)Nc1ccc(S(=O)(=O)Nc2ncccn2)cc1 (stereo not drawn)	i	-1.4
Cc1cccc(N2CCN(S(=O)(=O)c3ccc4[nH]c(=O)c(=O)[nH]c4c3)CC2C)c1 (stereo not drawn)	i	0.15
COc1ccc(C)cc1S(=O)(=O)N1CCC(C(=O)NCCC2=CCCCC2)CC1	i	-1.1
COc1ccc(CCNC(=O)c2cc3ccccn3n2)c(OC)c1OC	i	0.26
OC1(c2cccs2)CN(c2ccc(Br)cc2)C2=[N+]1CCCS2 (stereo not drawn)	i	-0.67
CC12CCC(C(=O)NCCCn3ccnc3)(OC1=O)C2(C)C (stereo not drawn)	i	-0.73
NC(=O)c1cc2ccc(O)cc2oc1=NCc1ccccc1	i	100
Cc1cc(CNC(=O)C2(C(F)(F)F)C/C(=C\Cc3ccccc3)CCCO2)nn1C (stereo not drawn)	i	-1.9
Brc1ccc(-c2noc3c2-c2nc(C4CCCCC4)sc2CC3)cc1	i	-0.01
O=C(c1cc(Cl)ccc1OCc1ccccc1)N1CCOCC1	i	0.37
CCC1=Nc2cc(C(=O)NCc3ccco3)ccc2Sc2ccc(Cl)cc21	i	3.8
CCCC(=O)c1cc(F)c(N2CCN(S(=O)(=O)c3ccccc3)CC2)cc1C	i	1
O=C(O)C1CCCCC1C(=O)NCCC(c1ccccc1)c1ccccc1 (stereo not drawn)	i	1.5
Cc1ccc(CN2C(=O)CSc3ccc(C(=O)NC4CC4)cc32)cc1	i	-0.61
CCC(=O)Nc1ccccc1C(=O)OC(c1ccccc1)c1ccccc1	i	-1.6
O=C(COc1ncnc2ccccc12)NCCc1ccc(F)cc1	i	2.1
CN1CCN(C(=O)c2ccc(COc3cc(Cl)ccc3Cl)o2)CC1	i	-0.09
Cc1ccc(C(=O)c2ccc(C)cc2)cc1	i	0.55
C=C(C)C1CC=C(C)/C(=N/NC(=O)COc2cccc3ccccc23)C1 (stereo not drawn)	-9.2*	-0.06*
CN(c1ccc(S(=O)(=O)N2CCOCC2)cn1)C1CCCCC1	i	-1.1
O=C(CN(Cc1ccc(Br)cc1)S(=O)(=O)c1ccccc1)NCc1ccccn1	-6.5*	-0.58*
COc1ccc(-c2c(C)nn3c(N4CCC5(CC4)OCCO5)cc(C)nc23)cc1OC	i	0.09
COC(=O)C1=C(C)Nc2[nH]c(=S)[nH]c(=O)c2C1c1ccc(OC)cc1 (stereo not drawn)	i	1.4

For reference, part of the list above.
SMILES	KCNQ2 block	KCNQ2 block baseline
COc1ccc(NC(=O)c2cc(-c3ccc(C)o3)nc3ccccc23)c(OC)c1	i	-0.24
Cc1cccc(C)c1NCc1n[nH]c(=S)n1-c1ccccc1	i	0.1
COc1ccccc1C(=O)NNC(=S)NC(=O)c1cc(OC)c(OC)c(OC)c1	i	-0.66
O=C(O)CCCn1cc(NC(=O)COc2ccc(F)cc2F)cn1	i	2.3
CCOC(=O)c1sc(NC(=O)CN2C(=O)NC3(CC(C)CC(C)(C)C3)C2=O)c(C(=O)OCC)c1C (stereo not drawn)	i	-2.1
CNC(=O)/C(C#N)=c1\s/c(=C/C(=O)OC)c(=O)n1-c1ccccc1	i	2.3
CCN(CC)S(=O)(=O)c1ccc(N2CCOCC2)c(NC(=O)CC23CC4CC(CC(Br)(C4)C2)C3)c1	i	1
CCCc1[nH]n(-c2ccc(F)cc2)c(=O)c1C=Nc1ccc(C)cc1	i	-1.1
Cc1[nH]c2ccc(F)cc2c1CCN(Cc1ccncc1)C(=S)Nc1ccc(F)cc1	i	1.3
N/C(=N\OC(=O)c1cc(-c2ccccc2)nc2ccccc12)c1ccccn1	i	-0.42
CCOC(=O)N1CCN(c2nnc(-c3ccc(C)cc3)c3ccccc23)CC1	i	0.12
O=C(CN1C(=O)C2CC=CCC2C1=O)Nc1ccc(S(=O)(=O)Nc2ncccn2)cc1 (stereo not drawn)	i	-1.4
Cc1cccc(N2CCN(S(=O)(=O)c3ccc4[nH]c(=O)c(=O)[nH]c4c3)CC2C)c1 (stereo not drawn)	i	0.15
COc1ccc(C)cc1S(=O)(=O)N1CCC(C(=O)NCCC2=CCCCC2)CC1	i	-1.1
COc1ccc(CCNC(=O)c2cc3ccccn3n2)c(OC)c1OC	i	0.26
OC1(c2cccs2)CN(c2ccc(Br)cc2)C2=[N+]1CCCS2 (stereo not drawn)	i	-0.67
CC12CCC(C(=O)NCCCn3ccnc3)(OC1=O)C2(C)C (stereo not drawn)	i	-0.73
NC(=O)c1cc2ccc(O)cc2oc1=NCc1ccccc1	i	100
Cc1cc(CNC(=O)C2(C(F)(F)F)C/C(=C\Cc3ccccc3)CCCO2)nn1C (stereo not drawn)	i	-1.9
Brc1ccc(-c2noc3c2-c2nc(C4CCCCC4)sc2CC3)cc1	i	-0.01
O=C(c1cc(Cl)ccc1OCc1ccccc1)N1CCOCC1	i	0.37
CCC1=Nc2cc(C(=O)NCc3ccco3)ccc2Sc2ccc(Cl)cc21	i	3.8
CCCC(=O)c1cc(F)c(N2CCN(S(=O)(=O)c3ccccc3)CC2)cc1C	i	1
O=C(O)C1CCCCC1C(=O)NCCC(c1ccccc1)c1ccccc1 (stereo not drawn)	i	1.5
Cc1ccc(CN2C(=O)CSc3ccc(C(=O)NC4CC4)cc32)cc1	i	-0.61

Next section:
SMILES	KCNQ2 block	KCNQ2 block baseline
Cc1ccc(S(=O)(=O)N2CCN(S(C)(=O)=O)C2)cc1	i	-0.52
Cc1ccc(OCCCC(=O)Nc2nnc(C3CCCO3)s2)c(C)c1 (stereo not drawn)	i	2.4
Cc1cccc(NC(=O)CC(=O)Nc2cccc(C)c2)c1	i	-1.2
S=C1COC(c2ccccc2)N1c1ccccc1 (stereo not drawn)	i	1.3
CCN(CC(=O)Nc1cc(S(=O)(=O)N2CCCCC2)ccc1C)Cc1ccccc1	i	-1.2
Cc1ccc(/C=C/C(=O)c2nc3ccccc3[nH]2)cc1	i	0.91
COc1ccc(CCNC(=O)CN(C2CCCCC2)S(C)(=O)=O)cc1OC	i	-0.85
O=C(OCc1ccc(C(=O)c2ccccc2)cc1)c1cccc(-c2nnc(-c3ccccc3)o2)c1	i	-0.52
CC(C)(C)NC(=O)NC(=O)COc1ccccc1C#N	i	-0.51
CCCCCCCCCCCCN1[C@@H](CC(C)=O)c2cc(C(F)(F)F)ccc2S1(=O)=O	i	0.88
C=CC1=C(C(=O)O)N2C(=O)[C@@H](NC(=O)/C(=N/OCC(=O)O)c3csc(N)n3)[C@H]2SC1	i	1.4
